Shh pathway inh: Hedgehog pathway signaling inhibitors, primary screen, luminescence, Shh-LIGHT2 cells, Gli-luciferase; inhibition, % (test concentration not listed); 2.1% of 22,000 active; Shh-LIGHT2 Gli-luciferase reporter, 30 h;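 active means replicate mean of 65% or more; inconclusive means mean lower but half the replicates past it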;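 further: pathway switched on by Shh-conditioned medium diluted 1 in 25 in low serum; 100 nL library stock added to about 40 µL; 0% = median of neutral wells and 100% = positive control level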
YB-1 expr inh: inhibitors of YB-1 gene expression, primary screen, cell-based, fluorescence; U2OS, qRT-PCR YB-1 vs CDIP delta delta Cp, 16 h; active compounds read high; zero = DMSO, each unit about twofold; delta delta Cp (YB-1 minus CDIP) (no concentration beside the values); 0.37% of 30,000 active;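 active means delta delta Cp rounded down to an integer at or above 3, about 3 SD of DMSO wells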;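 further: higher means less YB-1 transcript or more CDIP transcript relative to DMSO; stock transfer was 100 nL into about 100 µL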
PD-1 reverse act: activators reversing PD-1 mediated T-cell inhibition, primary screen, luminescence, primary human CD4 T cells, PD-L1 beads; AID 2316, 2010; activation, % (no concentration beside the values); CellTiter-Glo 96 h; 29,000 tested, under 10 active;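 active means replicate mean of 50% or more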;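 further: 0% = median vehicle wells and 100% = positive control; 100 nL library stock added to about 50 µL; numbers are from one replicate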
MITF inhib: inhibitors of MITF, primary screen, MITF inhibitor project, cell-based, luminescence | inhibition, % (test concentration not listed) | 0.28% of 37,000 active | TRPM1 promoter luciferase, 24 h;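 active means most replicates at 85% or more, or half of them and the mean; inconclusive means half reach 85% but not the mean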;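 further: human melanocyte line stably carrying TRPM1 promoter luciferase reporter; 0% = vehicle wells and 100% = a positive control; the first replicate is given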
* marks the source's active call; other numbers are inactive results; ? = inconclusive; . = not tested or not shown. These rows are one share of the data (hit frequency here may not be typical).

Sequence of screens: Shh pathway inh | YB-1 expr inh | PD-1 reverse act | MITF inhib
C[C@@H]1CN([C@H](C)CO)C(=O)Cc2cc(NC(=O)CCN3CCOCC3)ccc2O[C@H]1CN(C)Cc1ccc(C(=O)O)cc1
 : -31 | -0.37 | 1.8 | -5
C[C@@H]1CN([C@H](C)CO)C(=O)c2cccc(NS(C)(=O)=O)c2O[C@@H]1CN(C)CC1CCCCC1
 : -8 | 0.51 | . | -2
C[C@@H]1CCCCO[C@@H](CN(C)S(=O)(=O)c2cccs2)[C@@H](C)CN([C@H](C)CO)C(=O)c2cc(NS(=O)(=O)c3ccc(Cl)cc3)ccc2O1
 : -2 | -0.55 | -5.4 | 43
C[C@@H]1CCCCO[C@@H](CN(C)C(=O)Nc2ccc3c(c2)OCO3)[C@@H](C)CN([C@H](C)CO)C(=O)c2cc(NS(=O)(=O)c3ccccc3)ccc2O1
 : 16 | 0.008 | -0.6 | -2
C[C@H](CO)N1C[C@H](C)[C@H](CN(C)Cc2ccc(Oc3ccccc3)cc2)Oc2c(NC(=O)Nc3ccc(C(F)(F)F)cc3)cccc2C1=O
 : 15 | 0.25 | -9.8 | 10
COC(=O)C(Cc1c[nH]c2ccccc12)NC(=O)C(NC(=O)C(C)NC(=O)/C=C/C(=O)O)C(C)c1c[nH]c2ccccc12 (stereo not drawn)
 : 15 | -0.23 | -1.1 | -5
C[C@@H]1CCCCO[C@@H](CN(C)Cc2ccc(C(=O)O)cc2)[C@@H](C)CN([C@H](C)CO)C(=O)c2cc(NC(=O)CCC(F)(F)F)ccc2O1
 : -1 | 0.066 | . | -10
C[C@@H]1CCCCO[C@H](CN(C)S(=O)(=O)c2ccc(F)cc2)[C@@H](C)CN([C@H](C)CO)C(=O)c2cc(NS(=O)(=O)c3ccccc3)ccc2O1
 : 29 | -0.13 | -2.0 | 17
COc1cc(OC)c(NC(=O)CN(C)S(=O)(=O)c2ccc(C)cc2)cc1Cl
 : . | . | 2.4 | -31
CCn1c(SCC(=O)Nc2cc(C)ccc2OC)nnc1-c1ccc(Cl)cc1
 : . | . | -0.6 | 1
CCCC(=O)n1nc(-c2ccc(Cl)cc2)nc1NCc1ccco1
 : . | . | -0.4 | -46
COc1ccc(S(=O)(=O)N(C)C[C@H]2Oc3ccc(N(C)C)cc3C(=O)N([C@@H](C)CO)C[C@@H]2C)cc1
 : . | -0.23 | . | -3
CC(C)NC(=O)Nc1cccc2c1O[C@H](CN(C)CC1CCCCC1)[C@@H](C)CN([C@H](C)CO)C2=O
 : 32 | 0.4 | -4.3 | 3
Cc1cc(C(=O)Nc2cccc3c2O[C@H](CN(C)Cc2ccccc2)[C@H](C)CN([C@H](C)CO)C3=O)n(C)n1
 : -17 | 0.075 | -0.3 | -12
C[C@H](CO)N1C[C@H](C)[C@@H](CN(C)Cc2ccc(Oc3ccccc3)cc2)Oc2c(NS(=O)(=O)c3ccc(Cl)cc3)cccc2C1=O
 : 2 | -0.22 | -3.6 | 34
COc1ccc(S(=O)(=O)N(C)C[C@@H]2Oc3c(NS(=O)(=O)c4ccc(Cl)cc4)cccc3C(=O)N([C@H](C)CO)C[C@H]2C)cc1
 : 3 | 0.45 | 2.3 | 7
CN(C)CCCNc1c([N+](=O)[O-])c(=O)n(C)c2ccccc12
 : . | . | 0.8 | 5
C[C@H]1CN([C@@H](C)CO)C(=O)c2cc(NS(=O)(=O)c3ccc(Cl)cc3)ccc2O[C@H]1CN(C)CC1CC1
 : . | -0.56 | -0.9 | -3
C[C@@H]1CN([C@H](C)CO)C(=O)c2cccc(NS(=O)(=O)c3ccc(Cl)cc3)c2O[C@H]1CN(C)Cc1ccc(Cl)c(Cl)c1
 : 16 | 0.23 | . | 24
C[C@H]1CN([C@@H](C)CO)C(=O)Cc2cc(NC(=O)Nc3ccc(F)cc3)ccc2O[C@@H]1CN(C)C(=O)NC1CCCCC1
 : -23 | -0.13 | 0.3 | -15
CC1OC(NC(=O)c2ccccc2F)C(NC(=O)c2ccccc2F)OC1C (stereo not drawn)
 : 10 | -0.2 | -0.1 | 7
COc1ccc(NC(=O)N(C)C[C@H]2Oc3c(NC(=O)c4cnccn4)cccc3C(=O)N([C@@H](C)CO)C[C@@H]2C)cc1
 : 5 | -0.39 | 1.1 | -1
C[C@H]1CN([C@@H](C)CO)C(=O)Cc2cc(NC(=O)c3ccncc3)ccc2O[C@@H]1CN(C)S(=O)(=O)c1ccccc1
 : . | -0.058 | 0.2 | -7
Cc1c(NC(=O)COc2ccc(Br)cc2)cccc1-c1nc2ccccc2s1
 : . | . | 1.1 | 53
C=C(C)[C@@H]1CC[C@]2(C(=O)O)CC[C@]3(C)[C@H](CC[C@@H]4[C@@]5(C)CC[C@H](O)C(C)(C)[C@@H]5CC[C@]43C)[C@@H]12
 : -3 | -0.41 | . | 38
C[C@@H]1CN([C@@H](C)CO)C(=O)c2cccc(NS(=O)(=O)c3cccs3)c2O[C@@H]1CN(C)Cc1ccc(C(F)(F)F)cc1
 : -14 | -0.061 | -2.5 | -14
C[C@H](CO)N1C[C@H](C)[C@@H](CN(C)Cc2ccc(C(=O)O)cc2)Oc2c(NC(=O)C3CCOCC3)cccc2C1=O
 : 15 | -0.051 | 1.4 | -3
C/C=C/C=C/C(=O)N1CC[C@]23c4ccccc4N[C@H]4N(C)c5cccc6c5[C@]42CCN([C@H]6C2OC2(C)C)[C@H]13 (stereo partly drawn)
 : 1 | 0.22 | . | .
C[C@@H]1CN([C@H](C)CO)C(=O)c2cc(NC(=O)Cn3cnnn3)ccc2O[C@@H]1CN(C)C(=O)Nc1cccc2ccccc12
 : 4 | 0.053 | 0.6 | 1
O=C(CSc1nnnn1C1CCCCC1)Nc1ccccc1[N+](=O)[O-]
 : . | . | 1.5 | -2
CCCCCCCCCC(O)CC(O)CC(O)CC1CC=CC(=O)O1 (stereo not drawn)
 : -23 | -0.088 | -1.9 | -26
COc1ccc(NC(=O)Nc2ccc3c(c2)C(=O)N([C@H](C)CO)C[C@H](C)[C@@H](CN(C)C(=O)c2ccccc2)OCCCC[C@@H](C)O3)cc1
 : -57 | -0.2 | 0.0 | -12
C[C@@H]1CCCCO[C@H](CN(C)C(=O)Nc2ccccc2)[C@@H](C)CN([C@H](C)CO)C(=O)c2cc(NS(=O)(=O)c3cn(C)cn3)ccc2O1
 : 8 | -0.3 | . | -6
C[C@H]1CN([C@@H](C)CO)C(=O)c2cc(NS(=O)(=O)c3ccc(Cl)cc3)ccc2O[C@H]1CN(C)S(C)(=O)=O
 : . | 1 | 0.6 | 0
COc1ccc(NC(=O)Nc2cccc3c2O[C@H](CN(C)Cc2ccc(C(F)(F)F)cc2)[C@H](C)CN([C@H](C)CO)C3=O)cc1
 : 2 | 0.19 | -2.5 | -24
C[C@H]1CN([C@@H](C)CO)C(=O)Cc2cc(NS(=O)(=O)c3ccc(Cl)cc3)ccc2O[C@@H]1CN(C)C(=O)Nc1ccccc1
 : -15 | -0.027 | . | 5
Cc1ccc(N(CC(=O)NCc2ccco2)S(=O)(=O)c2ccc(C)cc2)cc1
 : -36 | -0.3 | 2.2 | -9
C[C@@H]1CN([C@H](C)CO)C(=O)Cc2cc(NC(=O)Cc3ccccc3)ccc2O[C@H]1CN(C)S(=O)(=O)c1ccccc1
 : -17 | -0.36 | . | -5
C[C@@H]1CCCCO[C@@H](CN(C)S(=O)(=O)c2cn(C)cn2)[C@@H](C)CN([C@H](C)CO)C(=O)c2cc(NS(=O)(=O)c3cn(C)cn3)ccc2O1
 : -17 | -0.29 | . | -21
C[C@H]1CN([C@@H](C)CO)C(=O)c2cccc(NS(C)(=O)=O)c2O[C@@H]1CN(C)Cc1ccc(Oc2ccccc2)cc1
 : 49 | 0.93 | . | -8

Entries above with a furan ring, fused or not, in the order listed:
Sequence of screens: Shh pathway inh | YB-1 expr inh | PD-1 reverse act | MITF inhib
CCCC(=O)n1nc(-c2ccc(Cl)cc2)nc1NCc1ccco1
 : . | . | -0.4 | -46
Cc1ccc(N(CC(=O)NCc2ccco2)S(=O)(=O)c2ccc(C)cc2)cc1
 : -36 | -0.3 | 2.2 | -9

(list continues)
Molecule,Shh pathway inh,YB-1 expr inh,PD-1 reverse act,MITF inhib
C[C@@H]1CN([C@H](C)CO)C(=O)c2cc(NC(=O)Nc3ccc(F)cc3)ccc2O[C@@H]1CN(C)Cc1ccc(Oc2ccccc2)cc1,?,0.22,-2.0,14
COc1ccccc1NC(=O)CC1COc2ccccc2O1 (stereo not drawn),.,.,-1.2,-9
CC1CCC2(OC1)OC1CC3C4CC=C5C[C@@H](O)CC(O)[C@]5(C)C4CC[C@]3(C)C1C2C (stereo partly drawn),-31,-0.13,1.9,-20
C[C@H]1CN([C@@H](C)CO)C(=O)c2cccc(NC(=O)Nc3ccccc3)c2O[C@@H]1CN(C)S(=O)(=O)c1ccc(F)cc1,8,0.28,.,-14
COc1ccc(CN(C)C[C@H]2Oc3ccc(NC(=O)Nc4ccc(F)cc4)cc3CC(=O)N([C@H](C)CO)C[C@H]2C)cc1,2,0.25,-0.3,-8
COc1ccc(C)cc1S(=O)(=O)N1CCCC(C(=O)Nc2cccc(SC)c2)C1 (stereo not drawn),.,.,0.0,7
Cc1c(Br)c(C(F)(F)F)nn1CC(=O)N1CCOCC1,5,0.062,0.5,-8
C[C@H]1CN([C@@H](C)CO)C(=O)c2cccc(NC(=O)c3cnccn3)c2O[C@H]1CN(C)C(=O)Nc1ccc(F)cc1,2,-0.18,1.0,-6
C[C@@H]1CN([C@H](C)CO)C(=O)c2cccc(NS(C)(=O)=O)c2O[C@@H]1CN(C)Cc1ccc2c(c1)OCO2,2,-0.15,-0.5,-2
O=c1cc(-c2ccc(O[C@@H]3O[C@H](CO)[C@@H](O)[C@H](O)[C@H]3O)cc2)oc2cc(O)cc(O)c12,-23,0.28,1.4,-21
C[C@H]1CN([C@@H](C)CO)C(=O)Cc2cc(NC(=O)c3ccncc3)ccc2O[C@@H]1CN(C)Cc1ccc(C(=O)O)cc1,1,-0.12,0.3,-5
CCOC(=O)CN1C(=O)C(O)(c2c(C)[nH]c3ccccc23)c2ccccc21 (stereo not drawn),.,.,0.2,6
C[C@@H]1CN([C@H](C)CO)C(=O)c2cc(NC(=O)C3CC3)ccc2O[C@H]1CN(C)C(=O)Nc1ccc(F)cc1,.,0.26,0.2,1
C/C=C1\C2C=C(C)CC1(N)c1ccc(=O)[nH]c1C2 (stereo not drawn),-1,0.21,0.9,2
C[C@H](CO)N1C[C@H](C)[C@H](CN(C)Cc2ccc(Cl)c(Cl)c2)Oc2c(NS(=O)(=O)c3ccc(Cl)cc3)cccc2C1=O,90*,-0.54,.,49
CSC1=N/C(=C\c2ccc(Br)cc2)C(=O)S1,5,-0.082,1.5,3
Cc1noc(C)c1S(=O)(=O)N(C)C[C@H]1Oc2ccc(NC(=O)Nc3cccc4ccccc34)cc2CC(=O)N([C@@H](C)CO)C[C@H]1C,-3,0.095,.,2
Cc1noc(C)c1NC(=O)Nc1ccc2c(c1)CC(=O)N([C@@H](C)CO)C[C@@H](C)[C@@H](CN(C)S(=O)(=O)c1cn(C)cn1)O2,-15,0.015,.,0
CCC1(C)Cc2c(sc3nc(SC)nc(SCC(=O)Nc4cccc(Cl)c4)c23)CO1 (stereo not drawn),.,.,-2.1,6
Cc1noc(C)c1S(=O)(=O)Nc1ccc2c(c1)CC(=O)N([C@@H](C)CO)C[C@@H](C)[C@@H](CN(C)Cc1ccc(Cl)c(Cl)c1)O2,9,0.24,.,-10
COc1ccc(NC(=O)Nc2ccc3c(c2)C(=O)N([C@@H](C)CO)C[C@H](C)[C@@H](CN(C)CC2CCCCC2)O3)cc1,.,0.54,2.4,-2
Cc1noc(C)c1S(=O)(=O)Nc1ccc2c(c1)C(=O)N([C@@H](C)CO)C[C@H](C)[C@@H](CN(C)Cc1ccc(C(F)(F)F)cc1)O2,.,-0.29,.,2
O=c1c(OC2OCC(O)C(O)C2O)c(-c2ccc(O)c(O)c2)oc2cc(O)cc(O)c12 (stereo not drawn),-70,0.077,.,.
COc1cc(C)c(S(=O)(=O)NCc2cccnc2)cc1C,.,.,1.4,7
CC(=O)c1cccc(N(CC(=O)Nc2cccnc2)S(C)(=O)=O)c1,.,.,-0.7,-8

Complete entries, quoted from the list. Screens in order: Shh pathway inh	YB-1 expr inh	PD-1 reverse act	MITF inhib
Entry for COc1cc(C)c(S(=O)(=O)NCc2cccnc2)cc1C → .	.	1.4	7
Entry for COc1ccc(NC(=O)Nc2ccc3c(c2)C(=O)N([C@@H](C)CO)C[C@H](C)[C@@H](CN(C)CC2CCCCC2)O3)cc1 → .	0.54	2.4	-2
Entry for CC(=O)c1cccc(N(CC(=O)Nc2cccnc2)S(C)(=O)=O)c1 → .	.	-0.7	-8
Entry for Cc1noc(C)c1S(=O)(=O)Nc1ccc2c(c1)C(=O)N([C@@H](C)CO)C[C@H](C)[C@@H](CN(C)Cc1ccc(C(F)(F)F)cc1)O2 → .	-0.29	.	2

Compound activity: PubChem, Broad Institute
